# GALR2 agonist – agonists of human galanin receptor 2 (GALR2) | activation, %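 (tested at 5 µM)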 | actives 0.48% (n = 140,000) | AID 803 | GALR2-expressing cells, agonist activation read-out | O43603;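 active means above mean plus 3 SD of all compounds, about 5% in these data, not always enough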;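 further: 0% = vehicle buffer wells and 100% = reference agonist at full effect; tested in CHO reporter cells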
# HSV replic up – HSV replication enhancement; HSV replication augmentation in cells, fold increase; maximum fold increase; actives 0.005% (n = 220,000);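 active means peak rise of 1.5-fold or more in the series; inconclusive means self-fluorescent or not available for retest; tested in PC3 cells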;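 further: first round at 10 µM; read as green reporter fluorescence; hits show the peak of a series up to 25 µM; 1 = signal of infected wells without compound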
# PKD1 kinase inh – inhibitors of human PKD1 kinase; actives 0.056% (n = 200,000); inhibition, %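 (about 10 µM by stock and volumes)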; PKD1 kinase fluorescence polarization assay;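 active means inhibition of 50% or more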;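 further: controls were vehicle for no effect and a reference inhibitor for full effect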
# Target sequence (Q15139 whole entry, looked up): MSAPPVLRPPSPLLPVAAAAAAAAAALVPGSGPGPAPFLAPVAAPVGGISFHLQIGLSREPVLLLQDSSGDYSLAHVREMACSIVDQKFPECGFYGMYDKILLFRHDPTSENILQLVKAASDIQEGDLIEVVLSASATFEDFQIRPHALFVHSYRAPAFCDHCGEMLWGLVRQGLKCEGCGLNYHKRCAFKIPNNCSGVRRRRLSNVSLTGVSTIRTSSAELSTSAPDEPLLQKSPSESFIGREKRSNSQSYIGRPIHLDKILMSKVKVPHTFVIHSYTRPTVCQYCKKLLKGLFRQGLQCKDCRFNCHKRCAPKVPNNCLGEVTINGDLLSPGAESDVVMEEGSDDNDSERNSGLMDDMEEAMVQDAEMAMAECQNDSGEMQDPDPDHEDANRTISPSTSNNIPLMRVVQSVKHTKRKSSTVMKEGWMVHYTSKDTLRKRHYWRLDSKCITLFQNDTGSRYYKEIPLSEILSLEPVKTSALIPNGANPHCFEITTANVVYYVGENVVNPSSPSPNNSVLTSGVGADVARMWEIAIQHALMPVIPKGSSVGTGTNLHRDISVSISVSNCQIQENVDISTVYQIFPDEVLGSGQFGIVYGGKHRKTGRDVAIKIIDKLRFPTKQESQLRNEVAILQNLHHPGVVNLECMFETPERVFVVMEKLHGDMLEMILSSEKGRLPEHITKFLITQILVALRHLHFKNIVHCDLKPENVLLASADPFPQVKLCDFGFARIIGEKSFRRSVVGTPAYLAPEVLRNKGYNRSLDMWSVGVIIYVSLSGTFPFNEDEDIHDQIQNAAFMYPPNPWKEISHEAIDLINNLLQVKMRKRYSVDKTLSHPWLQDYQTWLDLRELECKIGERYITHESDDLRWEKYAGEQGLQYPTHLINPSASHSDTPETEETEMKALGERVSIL
# INS promoter inh – TRM-6 insulin promoter activity inhibition. TRM-6 cells (human fetal islet line), insulin promoter-eGFP reporter, imaging; reporter expression induced with tamoxifen. inhibition, % at 2 µM. actives 0.9% (n = 130,000). AID 1273;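 active means inhibition above the mean plus 3 SD, with well images judged a real hit on visual review, cut at about 60% in these data, passing the limit was not always enough; inconclusive means inhibition over the cutoff but images rejected on review; inactive means inhibition not above the cutoff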
# RGS16-Gao – modulates binding between human RGS16 and Galphao. O15492+P09471. bead-based flow cytometry RGS16-Galphao binding, fluorescence; actives lie on both sides. binding response (% of control), % at 10 µM. actives 0.38% (n = 220,000);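 active means below 25% or above 175%, edge rows of some plates excepted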;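 further: Galphao activated by GDP with aluminum fluoride before binding; 100% = wells without compound and 0% = beads without RGS; some results beyond the cut were filed as inactive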
# INS promoter inh cell count – also measured in INS promoter inh; calls as there; normalized cell count, %; measured here: cell count, toxicity; reference of the scale not given here;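 cells exposed to compound for 48 h; stained nuclei by imaging scaled within each plate; lower means fewer cells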
# HSV replic up primary fold – recorded beside HSV replic up, whose call it bears; fold increase; compound at 10 µM; measured here: primary screen fold increase 10 uM; tested in PC3 cells;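 GFP signal in the first replicate; 1 = infected wells without compound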
# * hit, by the source's call; i = inactive; ? = inconclusive; · = no result given. Rows are unselected; overall some 1.1% were active at least once.
# Each structure is followed by: GALR2 agonist, PKD1 kinase inh, HSV replic up primary fold, INS promoter inh, RGS16-Gao, HSV replic up, INS promoter inh cell count
> CCOC(=O)N1CCN(S(=O)(=O)N(C)C)CC1
  -1.0, -1.1, 1, ·, 103.0, i, ·
> OC(COCc1ccccc1)CN1CCN(c2ccccc2)CC1 (stereo unspecified)
  -0.7, -7.3, 0.91, ·, 111.2, i, ·
> CCc1ccc(C(C)NC(=O)c2ccc(F)cc2)cc1 (stereo unspecified)
  -1.6, 1.5, 0.953, -2.9, 105.5, i, 119.6
> O=C1N(Cc2cccc(Cl)c2)C[C@@H]2C[C@@H](c3cccn3-c3ccccn3)N3CCC[C@@]123
  ·, 4.2, 0.98, -113.3, 104.0, i, 90.8
> CN(Cc1nc2ccc(F)cc2[nH]1)Cc1nc(CC2CC2)no1
  ·, -5.1, 0.9, ·, 98.0, i, ·
> CSC1=NCCN1C(=O)c1ccc(C)cc1
  ·, -7.2, 0.85, ·, 96.2, i, ·
> COc1cccc(CN2CCN(Cc3cc4ccccc4[nH]3)CC2CCO)c1 (stereo unspecified)
  ·, ·, 0.98, ·, 101.2, i, ·
> CCCCSc1cc(C)nc2ncnn12
  -1.6, 1.8, 0.983, -40.0, 99.1, i, 60.7
> C=C(C)Cn1c(CCCNC(=O)C(C)(C)C)nc2ccccc21
  0.4, -5.0, 0.79, 22.9, 100.6, i, 119.4
> CC1CC(C)CN(CCCNC(=O)c2csc3c2CCCC3)C1 (stereo unspecified)
  108.0*, -3.5, 0.84, -40.6, 106.5, i, 50.0
> COc1ccc(C(=O)Nc2cccc(-c3ccc4nncn4n3)c2)cc1
  ·, -2.5, 0.8, ·, 107.6, i, ·
> Cc1ccc(OCCCn2c(=O)oc3ccccc32)cc1
  ·, 4.0, 1.1, ·, 105.6, i, ·
> Cc1ccc(C2CC(c3cccc(C)c3)n3ncnc3N2)cc1 (stereo unspecified)
  ·, -13.1, 0.99, ·, 52.2, i, ·
> CCCCNCc1cc(OC)c(OCC(N)=O)cc1Br
  -1.4, -3.6, 0.79, 70.0, 96.9, i, 106.1
> Cc1ccc([N+](=O)[O-])cc1S(=O)(=O)n1ccnc1C
  ·, -8.4, 0.91, 53.9, 100.1, i, 141.5
> Cn1c(=O)c2c(ncn2CC(=O)OCC(=O)Nc2cc(Cl)ccc2Cl)n(C)c1=O
  3.4, -10.9, 0.99, -33.3, 106.9, i, 104.7
> CC(Sc1nnc2ccccn12)C(=O)Nc1ccc(Cl)cn1 (stereo unspecified)
  -0.8, -3.6, 0.9, ·, 98.4, i, ·
> CCN1CCN(CC(=O)Nc2ccc3c(c2)OCO3)C(=O)C1=O
  -2.6, 1.2, 0.9, ·, 100.4, i, ·
> O=C1NC(=O)C(CC(=O)N(Cc2cccs2)C2(C(=O)NC3CCCC3)CCCCC2)N1 (stereo unspecified)
  -3.3, -5.2, 0.93, -5.6, 35.4, i, 113.5
> O=C(Nc1ccc(NC(=O)c2ccc(S(=O)(=O)c3ccccc3)cc2)cc1)c1ccccc1
  -1.4, 7.9, ·, -25.0, 120.7, ·, 73.9
> COc1ccc(OC)c(NC(=S)NCc2cccs2)c1
  -0.7, -4.7, 0.96, 6.7, 101.2, i, 69.8
> CN(O)/C=C1\C(=O)Nc2ccccc21
  -3.0, -3.5, 1.01, 71.4, 93.5, i, 98.3
> CCc1ccc(NC(=O)CO/N=C(\C)c2cc3ccccc3o2)cc1
  -1.3, -1.2, 0.98, 26.7, 101.8, i, 103.8
> O=C1C(Cc2ccc(Br)cc2)SC(=Nc2ccccc2)N1c1ccccc1 (stereo unspecified)
  -0.8, 3.7, 1.03, 0.0, 63.3, i, 116.6
> Cc1c(C(=O)NNc2c(Cl)cccc2Cl)n(C)oc1=O
  ·, ·, 1.05, ·, 94.5, i, ·
> COc1cccc(OC)c1C(=O)Nc1ccc(NC(=O)c2ccco2)cc1
  0.4, -8.8, 0.84, ·, 105.0, i, ·
> COc1cc(C(=S)NCc2ccccc2)cc(Br)c1O
  ·, -2.9, 0.99, ·, 64.6, i, ·
> c1ccc2c(c1)ncc1cccn12
  -0.5, -6.7, 0.86, 9.1, 98.9, i, 127.7
> Cc1ccc(OCCC(=O)Nc2ccc(F)c(Cl)c2)cc1
  0.5, -7.2, 1.07, -13.3, 101.0, i, 100.0
> CCOc1ccc2nc(NC(=O)C3CCCO3)sc2c1 (stereo unspecified)
  ·, 1.2, 0.89, -41.7, 93.8, i, 100.6
> CCNc1ccc(S(=O)(=O)N(C)C)cc1NCC(=O)Nc1c(F)cccc1F
  -1.2, -8.0, 0.98, -55.9, 98.0, i, 131.3
> COc1cc(C2=Nc3ccc(Br)cc3C(c3ccccc3)N2CC(=O)NN)cc(OC)c1OC (stereo unspecified)
  ·, ·, 1.01, ·, 101.0, i, ·
> CN(CC(=O)Nc1ccc(N2CCOCC2)cc1)CC(=O)Nc1ccccc1[N+](=O)[O-]
  0.4, -17.8, 0.9, 0.0, 112.1, i, 108.5
> CCOC(=O)c1c(C)[nH]c(C)c1C(=O)COC(=O)c1cc(OC)c(OC)cc1OC
  ·, -8.5, 0.64, ·, 101.6, i, ·
> CCN(CC)CCn1nc2c3c(cccc3c1=O)-c1ccccc1-2
  ·, -1.3, 0.65, ·, 101.0, i, ·
> CCCCC1C(C#N)=C(C)NC2=C1C(=O)CC(C)(C)C2 (stereo unspecified)
  0.5, -7.2, 0.99, -46.9, 103.6, i, 204.8
> Cc1ccccc1N1C(S)=C(C#N)C(=O)NC1c1ccco1 (stereo unspecified)
  ·, -6.8, 1.07, -72.7, 96.8, i, 85.8
> Clc1cccc(NCc2nnc(SCc3ccc(Cl)cc3Cl)o2)c1
  -0.9, 0.6, 0.98, 16.3, 89.6, i, 114.6
> Fc1ccc(CSc2ccc3nnc(-c4ccccn4)n3n2)cc1
  ·, -1.9, 0.94, -54.3, 98.9, i, 86.3
> COC(=O)CN1C(=S)N(c2ccc(OC)cc2)C(=O)C1CC(=O)Nc1ccc(F)cc1 (stereo unspecified)
  ·, -2.1, 0.97, 12.8, 96.9, i, 160.7
> COC(=O)c1ccc(N)c(N=CC2=C(O)CC(C)(C)CC2=O)c1
  0.8, 0.8, ·, ·, 101.8, ?, ·
> CCOC(=O)CC(=O)CSc1nc2c(c(-c3cccs3)c1C#N)CCC2
  0.2, 5.2, 1.1, ·, 100.3, i, ·
> CCCn1c(C2CC(=O)N(c3cc(OC)ccc3OC)C2)nc2ccccc21 (stereo unspecified)
  -0.3, -10.7, 1.18, ·, 110.2, i, ·
> CC1CCCCN1S(=O)(=O)c1ccc(C(=O)Nc2nnc(-c3ccccc3Cl)o2)cc1 (stereo unspecified)
  -2.4, -11.5, ·, ·, 184.0, ·, ·
> COc1ccc(CCNC(=O)C2CC(=O)N(c3ccc(C(C)(C)C)cc3)C2)cc1OC (stereo unspecified)
  ·, 1.7, 1.08, ·, 99.9, i, ·
> N#CC(c1ccccc1)c1ccc2c(C(F)(F)F)cc(C(F)(F)F)nc2n1 (stereo unspecified)
  -2.6, -1.8, 0.883, -41.9, 99.1, i, 98.3
> CCOC(=O)N1CCN(C(=O)Nc2cccc3ccccc23)CC1
  ·, -8.0, 0.99, ·, 105.0, i, ·
> CC(C)c1ccc(-c2c(C#N)c(N)nc(SCC(=O)N3CCCCC3)c2C#N)cc1
  -1.7, -2.6, 0.9, ·, 102.2, i, ·
> CCN(CC)CCCNc1oc(-c2cccc(Cl)c2)nc1C#N
  -1.6, -1.9, 1.15, 13.5, 118.8, i, 82.0
> CC1=C(C(=O)OCC(C)C)C(c2cc3c(cc2Br)OCO3)NC(=O)N1C (stereo unspecified)
  -0.1, -3.4, 1, -7.9, 35.9, i, 151.1

# (more compounds)
# Each structure is followed by: GALR2 agonist, PKD1 kinase inh, HSV replic up primary fold, INS promoter inh, RGS16-Gao, HSV replic up, INS promoter inh cell count
> Cc1nn(Cc2ccccc2)c2c1C(c1ccc(Cl)cc1)C(C#N)=C(N)O2 (stereo unspecified)
  -1.9, 2.3, 1.02, 43.8, 96.8, i, 101.8
> O=C(Nc1nc(-c2cc(F)ccc2F)cs1)C1=NN(c2ccccc2)C(=O)CC1
  ·, -6.6, 0.79, ·, 101.8, i, ·
> O=C(c1ccco1)N1CCC(n2nnc3ccccc32)CC1
  -3.1, -13.2, 0.86, -31.4, 101.7, i, 89.4
> CC(OC(=O)C1CCCCC1)C(=O)Nc1cccc(Cl)c1 (stereo unspecified)
  ·, -0.4, 0.96, -108.3, 107.8, i, 29.6
> Cc1c(C)n(CC(O)CN2CCOCC2)c2ccccc12 (stereo unspecified)
  -2.2, -8.7, 1.13, ·, 107.8, i, ·
> O=C(CSc1ccccc1Cl)c1ccco1
  -0.8, 8.1, 0.91, ·, 105.6, i, ·
> COc1ccc2occ(C(=O)c3cccs3)c2c1
  0.1, -0.2, 0.92, 15.6, 109.1, i, 100.0
> Cc1ccc(OC(=O)c2c(C)nn(-c3ccccc3)c2C)cc1
  ·, ·, 1.03, ·, 96.3, i, ·
> CCOc1ccccc1N(C(=O)CNC(=O)c1ccco1)C(C(=O)NC(C)(C)C)c1ccncc1 (stereo unspecified)
  -1.7, -7.8, 1.06, 18.2, 105.5, i, 109.0
> OCCN1CCN(C(=S)c2ccc(-c3ccccc3)cc2)CC1
  ·, ·, 1.01, ·, 80.0, i, ·
> C#CC(CC)(CC)NC(=S)Nc1cccc(C(C)=O)c1
  -1.7, -6.4, 0.83, ·, ·, i, ·
> C=CCON1C(=O)C(=O)N(OCC=C)[C@H]2CCCC[C@H]21
  ·, ·, 1.05, ·, 112.5, i, ·
> O=C(Nc1cccc(NC(=O)c2ccco2)c1)c1cnccn1
  -2.8, -0.6, 1.02, 33.3, 94.8, i, 115.4
> C=CCNC(=O)c1onc(CSc2cccc(OC)c2)c1C(=O)O
  -5.0, -12.0, 0.93, -13.5, 99.9, i, 37.0
> Cc1cc2[nH]c3c(c[n+](C)c4ccccc34)c2cc1C
  ·, -3.9, 0.65, ·, 107.3, i, ·
> CCC(C)NCC(=O)Nc1sc2c(c1C(N)=O)CCC2 (stereo unspecified)
  -2.7, 0.0, 0.85, 17.4, 101.6, i, 96.0
> Cc1ccc(NC(=O)c2ccc(CNc3c(N4CCOCC4)c(=O)c3=O)cc2)cc1
  -3.5, -11.2, ·, ·, 102.3, ·, ·
> Cn1nc(C(F)(F)F)c(-c2ccc(Br)cc2)c1NC(=O)C1CCC1C(=O)O (stereo unspecified)
  ·, ·, 1.13, ·, 103.1, i, ·
> Cc1cc(C(C)(C)C)ccc1OCCn1ccnc1
  -1.9, 1.2, 0.933, 21.9, 116.0, i, 115.1
> O=C(COC(=O)[C@@H]1CCCN1C(=O)c1cccs1)NCCc1ccccc1
  -1.2, -4.9, 0.86, -43.3, 114.6, i, 95.3

# The final four records of the section before are carried over, then new ones follow:
# Each structure is followed by: GALR2 agonist, PKD1 kinase inh, HSV replic up primary fold, INS promoter inh, RGS16-Gao, HSV replic up, INS promoter inh cell count
> Cc1ccc(NC(=O)c2ccc(CNc3c(N4CCOCC4)c(=O)c3=O)cc2)cc1
  -3.5, -11.2, ·, ·, 102.3, ·, ·
> Cn1nc(C(F)(F)F)c(-c2ccc(Br)cc2)c1NC(=O)C1CCC1C(=O)O (stereo unspecified)
  ·, ·, 1.13, ·, 103.1, i, ·
> Cc1cc(C(C)(C)C)ccc1OCCn1ccnc1
  -1.9, 1.2, 0.933, 21.9, 116.0, i, 115.1
> O=C(COC(=O)[C@@H]1CCCN1C(=O)c1cccs1)NCCc1ccccc1
  -1.2, -4.9, 0.86, -43.3, 114.6, i, 95.3
> Cc1cc(C)c2ccc3c(C)c(C)nc3c2[nH]1
  ·, 2.7, 0.85, ·, 97.9, i, ·
> Nc1ccccc1NC1=CC(=O)CC(c2ccccc2)C1 (stereo unspecified)
  ·, 1.4, 1.01, 31.2, 105.5, i, 99.6
> O=C(CN1C(=O)CC(c2ccccc2)=Nc2ccccc21)NCc1ccccc1
  -2.0, -1.6, 0.94, -75.0, 111.0, i, 125.2
> Cc1cccc(NC(=O)c2cnn(-c3ccc(F)cc3)c2C2CCNCC2)c1C
  ·, -1.8, 0.92, ·, 105.6, i, ·
> CCOC(=O)c1sc(NC(=O)COC(=O)CNC(=O)c2ccco2)c(C(=O)OCC)c1C
  0.7, 3.8, 0.93, 32.3, 99.8, i, 83.9
> COc1ccc(NC(=O)CC(=O)Nc2ccc(OC)cc2OC)c(OC)c1
  -1.2, -4.6, 0.97, -3.2, 110.3, i, 145.6
> CSCCC(NC(N)=O)C(=O)NCc1ccc(Cl)cc1 (stereo unspecified)
  -2.0, -1.4, 1.13, 8.1, 103.4, i, 133.1
> O=C(NC(CO)Cc1ccccc1)c1ccccc1 (stereo unspecified)
  0.2, -2.7, 0.94, 21.4, 100.0, i, 151.7
> Cc1cc2cc(C)c3nnc(SCC(=O)NCc4ccc5c(c4)OCO5)n3c2cc1C
  -1.7, -9.5, 0.79, 3.6, 102.7, i, 86.3
